# VDR inhibitor – Inhibitors of the vitamin D receptor (VDR): qHTS | VDR-SRC2-3 peptide fluorescence polarization, 2 h | AID 504847, 2011 | Potency, µM, for inactives: max response, negative = inhibition, actives largely listed as inhibitors | Vitamin D3 receptor (Homo sapiens), P11473 | hit rate 0.93% among 400,000; active = well fitted inhibition curve with a large enough effect; inconclusive = small, poorly fitted or top-dose-only effect, or another doubt; inactive = no such curve, though single readings can be large or run the other way; note: series mostly up to about 120 µM
# Target sequence (P11473 whole entry, looked up): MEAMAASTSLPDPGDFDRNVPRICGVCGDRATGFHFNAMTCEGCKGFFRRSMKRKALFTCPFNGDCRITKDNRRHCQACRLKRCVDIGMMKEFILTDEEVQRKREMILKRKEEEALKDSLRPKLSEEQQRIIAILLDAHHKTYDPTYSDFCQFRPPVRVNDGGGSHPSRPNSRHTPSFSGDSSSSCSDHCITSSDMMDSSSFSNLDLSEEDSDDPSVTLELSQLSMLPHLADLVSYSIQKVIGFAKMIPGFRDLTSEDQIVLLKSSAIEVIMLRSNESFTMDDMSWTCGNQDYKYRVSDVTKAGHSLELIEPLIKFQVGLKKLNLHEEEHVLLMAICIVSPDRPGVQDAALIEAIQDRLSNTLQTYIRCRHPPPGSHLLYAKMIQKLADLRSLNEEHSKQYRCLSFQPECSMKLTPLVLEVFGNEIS
#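 Fluorescence polarization assay of small-molecule disruption of VDR binding to coregulator peptide SRC2-3. Compounds and controls pin-transferred, then read after 2 h incubation at ambient room temperature.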
# An asterisk follows results filed as active; ? = inconclusive; & = joins results of further samples; [ ] = dose if it differs, or a comment. % is set by controls: 0 for no effect and ±100 for the full control effect; potency is the fitted concentration of half-maximal effect. These rows are one share of the data; rates above refer to the full screens.
# Start of the data: the first two compounds, ahead of the listing:
SMILES,VDR inhibitor
CCC(NC(=O)Nc1cc(OC)ccc1OC)c1c(-n2cccc2)sc2c1CCN(CC)C2 (centres undefined),3%
CC(C)N(C(=O)[C@H]1C[C@H](CC(=O)NCCC2=CCCCC2)C(=O)N2CCc3c([nH]c4cc(CCC(=O)N(C)C)ccc34)[C@]12C)C(C)C,8%

# This part in full, from the first entry:
SMILES,VDR inhibitor
CCC(NC(=O)Nc1cc(OC)ccc1OC)c1c(-n2cccc2)sc2c1CCN(CC)C2 (centres undefined),3%
CC(C)N(C(=O)[C@H]1C[C@H](CC(=O)NCCC2=CCCCC2)C(=O)N2CCc3c([nH]c4cc(CCC(=O)N(C)C)ccc34)[C@]12C)C(C)C,8%
CCOc1ccc(CCNC(=O)COC(=O)COc2ccc(C#N)cc2)cc1OCC,17%
O=[N+]([O-])c1cc(S(=O)(=O)N2CCCC2)ccc1N/N=C/c1ccncc1,2%
CCOc1ccccc1NC(=O)COC(=O)c1cn(CC)c2nc(C)ccc2c1=O,-3%
Cn1ncc2c(N3CCOCC3)ncnc21,4%
CC(=O)OC1CC(C)(C)N(OC(=O)CCCN2C(=O)c3ccccc3C2=O)C(C)(C)C1,15%
Cc1ccc(S(=O)(=O)N(CC(=O)NCCSCc2ccco2)c2cc(C)ccc2C)cc1,-4%
CC(=O)Nc1ccc(NC(=O)C(C)OC(=O)c2ccccc2C(=O)c2ccc(Cl)c([N+](=O)[O-])c2)cc1 (centres undefined),4%
Cc1cc(C)cc(NC(=O)CS(=O)(=O)c2ccccc2)c1,-18%
CCN(CC)S(=O)(=O)c1cc(NS(=O)(=O)c2cccs2)ccc1C,0%
O=C(C1=C(O)C(=O)N(CCOCCO)C1c1cccs1)c1cccs1 (centres undefined),2%
C=CCn1c(O)c(N=NC(=O)c2ccc3c(c2)OCO3)c2ccccc21,5%
CCc1ccc(C(=O)Cc2cc3cccc(OC)c3oc2=O)cc1,-9%
Cn1nc(C(C)(C)C)cc1C(=O)NNC(=O)c1cccc(Cl)c1,-1%
COc1ccc(Cc2c(O)nc(SC)n(C(C)=O)c2=O)cc1,?
CCOC(=O)N1CCN(C(=O)c2ccc(SC)cc2OC)CC1,-15%
O=C(NC1CCN(C(=O)Nc2cccc(Cl)c2)CC1)C1CCCCC1,-5%
CC(C)(C)c1ccc(OCCn2ccccc2=O)cc1,2%
COc1cc(NC(=S)NCCc2ccc(S(N)(=O)=O)cc2)c(OC)cc1Cl,-22%
CCN1C(=O)/C(=C\N(C)C)c2ccccc21,-2%
O=c1c2ccccc2nc2c3ccccc3cnn12,11%
CCCC(=O)Nc1nc2ccc(NC(=O)c3ccc(Br)o3)cc2s1,2%
CCOC(=O)c1cc(C)n(CCCN2CCOCC2)c1C,-5%
O=C(CCl)Nc1ccccc1C(=O)NCc1ccccc1,-9%
NS(=O)(=O)c1ccc(NC(=O)CCC(=O)N2CCOCC2)cc1,-1%
COC(=O)c1cnn(-c2ccc(F)cc2F)c1/C=N/NC(N)=S,?
CCc1c(Nc2ccccc2C)nc(N)[nH]c1=O,-2%
CC(C)(C)OC(=O)N1CCN(C(=O)c2nc[nH]c2C(=O)N2CCN(c3ccccc3)CC2)CC1,-6%
O=C(NCCN1CCCC(O)C1)c1cc(COc2c(F)cccc2F)on1 (centres undefined),5%

# Given tab-delimited: 4 of the compounds above
smiles	VDR inhibitor
CC(C)N(C(=O)[C@H]1C[C@H](CC(=O)NCCC2=CCCCC2)C(=O)N2CCc3c([nH]c4cc(CCC(=O)N(C)C)ccc34)[C@]12C)C(C)C	8%
CCN1C(=O)/C(=C\N(C)C)c2ccccc21	-2%
COC(=O)c1cnn(-c2ccc(F)cc2F)c1/C=N/NC(N)=S	?
Cn1nc(C(C)(C)C)cc1C(=O)NNC(=O)c1cccc(Cl)c1	-1%

# (list continues)
SMILES,VDR inhibitor
O=C(c1ccccc1)c1cccn1CC(=O)N1CCN(C2CCCCC2)CC1,6%
COc1ccc(C2c3c(ncn(CCN4CCOCC4)c3=N)Oc3ccc4ccccc4c32)cc1 (centres undefined),0%
COC(=O)Cc1ccc(NC(=S)N2CCCCC2C)cc1 (centres undefined),-5%
Cc1ccc(C(=O)Nc2ccccc2)cc1S(=O)(=O)Nc1ccccc1,-11%
COc1cccc(Cn2c(SCC(=O)N(C)c3ccccc3)nc3ccccc32)c1,14%
O=C(c1cncc(Br)c1)N1CCN(S(=O)(=O)c2ccc3ccccc3c2)CC1,-6%
CCCn1c(SCC(=O)N2CC(=O)Nc3ccccc32)n[nH]c1=O,7%
CCC(C(=O)OCC(=O)Nc1c(C)n(C)n(-c2ccccc2)c1=O)c1ccccc1 (centres undefined),14%
COCC(=O)Nc1cc(C(=O)OC)cc(C(=O)OC)c1,-9%
Clc1ccc(CN2CCC(c3nc4ccc(Cl)cc4[nH]3)CC2)cc1,-1%
COc1ccc(C(=O)/C=C/c2ccc(OCc3ccccc3)cc2)cc1CSCC(=O)O,?
O=C(Nc1nnc(SCc2c(Cl)cccc2Cl)s1)C1CCCO1 (centres undefined),5%
Cc1ccc(NC(=O)c2sc(-n3nc(C)c(Cc4ccc5c(c4)OCO5)c3C)nc2C)cc1C,-4%
O=C(COc1ccc(Cl)cc1)N(Cc1ccco1)c1ccccn1,17%
COC(=O)c1cc(COc2ccc3c4c(c(=O)oc3c2)CCCC4)c(C)o1,1%
Cc1ccc(NC(=O)CSc2nc3ccccc3c3nc(CCc4c(C)n[nH]c4C)nn23)c(C)c1,2%
CC1Cc2cc(/C(O)=C3/C(=O)C(=O)N(CCCn4ccnc4)C3c3ccncc3)ccc2O1 (centres undefined),3%
COc1ccc(NC(=O)CN2C(=O)NC(C)(c3ccc(C)cc3)C2=O)c([N+](=O)[O-])c1 (centres undefined),-24%
COc1ccc(-c2ccnc(SCC(=O)c3ccc(Br)cc3)n2)cc1,-2%
Cc1ccc(-c2nn(-c3ccccn3)c(=O)c3ccccc23)cc1,21%

# 4 compounds picked at random from those above, as already listed:
SMILES,VDR inhibitor
COc1ccc(-c2ccnc(SCC(=O)c3ccc(Br)cc3)n2)cc1,-2%
O=C(COc1ccc(Cl)cc1)N(Cc1ccco1)c1ccccn1,17%
Cc1ccc(NC(=O)CSc2nc3ccccc3c3nc(CCc4c(C)n[nH]c4C)nn23)c(C)c1,2%
COc1ccc(NC(=O)CN2C(=O)NC(C)(c3ccc(C)cc3)C2=O)c([N+](=O)[O-])c1 (centres undefined),-24%

# Later entries:
SMILES,VDR inhibitor
COc1ccc(-c2nc3ccccc3o2)cc1NC(=O)C(C)(C)Oc1ccc(Br)cc1,-5%
O=C(Cn1nnc2ccccc21)NNC(=S)NC1CCCCC1,-8%
CN(C)c1ccc(-c2ccc([C@H]3[C@@H]4C=CCC[C@@]4(C)C(=O)N3Cc3ccccc3)c(F)c2)cc1,-27%
CC(C)N(Cc1ccccc1)S(=O)(=O)c1ccc(Cl)nc1,-1%
COc1ccc(Nc2nc(-c3cccc([N+](=O)[O-])c3)nc3ccccc23)cc1,-14%
O=C(c1ccc(Cl)c(NC2=NC3CS(=O)(=O)CC3S2)c1)N1CCN(c2ccccc2)CC1 (centres undefined),-14%
O=C(CN(Cc1ccco1)C(=O)CNS(=O)(=O)c1ccc(Cl)cc1)NCc1ccco1,6%
C/C(=N/NC(=O)c1cccs1)c1cccc(NC(=O)C2CC2)c1,8%
COc1cc(S(=O)(=O)n2c(C)nc3ccccc32)ccc1F,-7%
COc1ccccc1NC(=O)Cn1nnc(C(=O)Nc2ccccc2)c1N,-9%
CCN(CC)C(=O)CSc1nnc2nnc3cc(Cl)ccc3n12,-2%
O=C(CN1CCCCCC1)NCCc1ccc(F)cc1,6%
CCCCN1CC(O)=C(c2nc3ccccc3[nH]2)C1=N,-11%
COC(=O)c1c(SCC(=O)Nc2ccccc2C(F)(F)F)[nH]c2ccc(Cl)cc2c1=O,5%
CCNC(=O)CN1C(=O)NC(Cc2ccccc2)(Cc2ccccc2)C1=O,-21%
Cc1noc(C)c1C(=O)Nc1sc(C)c(C)c1C#N,44%[activator]
Cc1cccc(Nc2ncccc2C(=O)O)c1C,2%&-23%
O=C(/C=C/c1ccc(S(=O)(=O)NCc2ccco2)cc1)NCc1cccc(Cl)c1,4%
COC(=O)C1=C(C)N(Cc2ccccc2)C(=NCCc2c[nH]c3ccccc23)N[C@H]1c1cccc(F)c1,-8%
O=C(CSc1nnc2[nH]c(=O)cc(-c3ccccc3)n12)Nc1cc(C(F)(F)F)ccc1Cl,13%
Cn1cnc2c1c(=O)n(Cc1ccccc1)c(=O)n2C,-19%
CCC1CCCCN1CCCNC(=O)CN1C(=O)COc2ccc(S(=O)(=O)N3CCOCC3)cc21 (centres undefined),-4%
Cc1ccc(OCCNC(=O)c2ccccc2SCC(=O)N2CCCC2)cc1,-11%
CCC(C)Nc1oc(-c2ccc(COc3ccc(Cl)cc3)o2)nc1C#N (centres undefined),8%
Cc1cc(C)cc(NC(=O)CSc2nncn3c2cc2occc23)c1,-6%
COC(=O)C1=C(C)Nc2ncnn2C1c1ccco1 (centres undefined),1%
O=C1c2ccncc2C(=O)N1C1CCCCC1,-1%
COc1cc(NC(=O)c2cc(-c3cccc(O)c3)on2)cc(OC)c1OC,3%
COc1ccc(CCC(=O)Nc2cc([N+](=O)[O-])ccc2OC)cc1,0%
CC(=O)c1c(C(C)=O)c(C)n(-c2cccc3cccnc23)c1C,15%
CC(C)CC(c1nnnn1C(C)C)N1CCN(C(=O)c2ccco2)CC1 (centres undefined),24%
Cc1cc(C(=O)Nc2cc(S(C)(=O)=O)ccc2Cl)no1,-18%
Cc1c(C(=O)NN)sc(-c2ccccc2)c1C#N,-13%
N#C/C(=C(/O)COC(=O)COc1ccc(Cl)cc1)c1nc2ccccc2[nH]1,0%
O=C1NC2(CCC3(CC2)OCCO3)NN1c1ccccc1,0%
CCCn1nnc(NC(=O)c2cccc(OCc3ccccc3)c2)n1,13%
C[C@H](NC(=O)c1nc[nH]c1C(=O)NCc1ccccc1)C(=O)OCc1ccccc1,8%
CCNc1oc(-c2ccccc2F)nc1S(=O)(=O)c1ccccc1,-21%
CC12CC(NC(=O)N1CCc1ccccc1)c1ccccc1O2 (centres undefined),0%
Cc1noc(C)c1S(=O)(=O)N(C)C[C@H]1Oc2c(NC(=O)Nc3ccc4c(c3)OCO4)cccc2C(=O)N([C@H](C)CO)C[C@@H]1C,-15%

# As entered above:
# `N#C/C(=C(/O)COC(=O)COc1ccc(Cl)cc1)c1nc2ccccc2[nH]1` in VDR inhibitor: 0%
# `CC(C)CC(c1nnnn1C(C)C)N1CCN(C(=O)c2ccco2)CC1` (centres undefined) in VDR inhibitor: 24%

# Other structures follow:
SMILES,VDR inhibitor
Clc1cccc(N2CCN(c3ncnc4nc[nH]c34)CC2)c1,21%
CCN1CCN(Cc2ccc(NC(=O)c3ccc(C)c(NC(=O)C(=O)c4c[nH]c5ccccc45)c3)cc2C(F)(F)F)CC1,28%&21%
COCCN(CCOC)C(=S)Nc1cc(S(=O)(=O)N(C)C)ccc1C,-5%
COc1ccc(NC(=S)N2CCC(Cc3ccccc3)CC2)cc1,-7%
Cc1nc2ccc(NC(=O)c3ccc(C)c(S(=O)(=O)N4CCOCC4)c3)cc2s1,-6%
O=Cc1nc(-c2ccc(Cl)cc2)n2ccccc12,-13%
CCN(C(=O)CN1C(=O)S/C(=C\c2ccccc2OC)C1=O)C1CCS(=O)(=O)C1 (centres undefined),-6%
C1=C(CCNc2ncnc3nc[nH]c23)CCCC1,-3%
O=C(Nc1ccc(Cl)cn1)c1cnn2cccnc12,2%
Cn1cc(C(=O)O)c(=O)c2cc(S(=O)(=O)N3CCCCC3)ccc21,8%
COc1ccc(OC)c(CCNC(=O)CCCn2c(=O)c3cccn3c3cccnc32)c1,1%
COC(=O)Cn1c2c(c3cc(C)ccc31)CCCC2NC(C)c1ccccc1 (centres undefined),-1%
COc1ccc(/C=N/NC(=O)c2nonc2C)cc1,14%
CSc1nc2ccc3nc(NC(=O)c4cccs4)sc3c2s1,13%
COCCN(Cc1nc2ccccc2c(=O)[nH]1)C(=O)COc1ccccc1-c1ccccc1,7%
COC(=O)c1ccccc1N/C=C1\CCc2c(c(C)nn2-c2ccccn2)C1=O,12%
C=CCn1c(SCC(=O)c2c(N)n(C3CC3)c(=O)[nH]c2=O)nnc1-c1ccc(OC)cc1,2%
CCCOc1ccccc1C1CC(=O)NC(C)=C1C(=O)OCC(C)C (centres undefined),10%
COc1ccc2c(c1)O[C@@H](c1cccc(C(F)(F)F)c1)[C@H](OC(=O)Nc1cc(OC)c(OC)c(OC)c1)C2=O,4%
Cc1ccc(SCc2nc3ccccc3n2CC(=O)Nc2c(C)cccc2C)cc1,11%
C=CC(C)Sc1nc2c(c(=O)n(C)c(=O)n2C)n1Cc1ccccc1Cl (centres undefined),-26%
CCn1nc2cc(C(=O)NCC34CC5CC(CC(C5)C3)C4)ccc2c1OC,-15%
CC(=O)COc1c(-c2ccco2)oc2ccccc2c1=O,0%
COC(=O)c1ccc(COc2cccc(OC)c2)o1,27%
COC(=O)[C@]1(C)N[C@H](c2ccc(-c3ccc(Cl)c(Cl)c3)cc2)[C@@H]2C(=O)N(C)C(=O)[C@@H]21,-20%
COc1ccc(/C=C/C(=O)Nc2ccccc2C(=O)N2CCCC2)cc1,12%
Cc1ccc(S(=O)(=O)NCCC(=O)NC2CC2)cc1,6%
COc1ccc(OC)c(NC(=O)Cc2coc3ccc4ccccc4c23)c1,14%
CC(=O)NC1C(OCCOc2ccc(Cl)cc2Cl)OC(COC(C)=O)C(OC(C)=O)C1OC(C)=O (centres undefined),-4%
O=C(O)C1CCCN(S(=O)(=O)c2ccc(Br)s2)C1 (centres undefined),13%
CCOC(=O)c1ccc2c(c1)sc1nc(-c3ccc(OCC)cc3)cn12,-3%
COc1ccc(S(=O)(=O)Nc2ccc(O)c(Sc3nc4ccccc4s3)c2)cc1,?
O=C(CNC(=O)C12CC3CC(CC(C3)C1)C2)OCc1ccc(F)cc1Cl,-2%
C/C(=N\NC(=O)Cc1ccc(Cl)cc1)c1ccccc1O,12%
O=C(NCc1ccccc1)C1=C[C@@H](C2CC2)C[C@@H](OCc2ccc(CO)cc2)O1,-11%
COc1ccc(NC(=O)c2cc(-c3ccccc3Cl)on2)cc1OC,4%
